VDR inh = Inhibitors of the vitamin D receptor (VDR): qHTS; AID 504847, 2011; Potency, µM, inactives show max response, negative = inhibition, hits mostly inhibitors; VDR-SRC2-3 peptide fluorescence polarization, 2 h; actives 0.93% (n = 400,000); Vitamin D3 receptor (Homo sapiens), P11473; active = well fitted inhibition curve with a large enough effect; inconclusive = small, poorly fitted or top-dose-only effect, or another doubt; inactive = no such curve, though single readings can be large or run the other way; also: series mostly up to about 120 µM
Target sequence (P11473 whole entry, looked up): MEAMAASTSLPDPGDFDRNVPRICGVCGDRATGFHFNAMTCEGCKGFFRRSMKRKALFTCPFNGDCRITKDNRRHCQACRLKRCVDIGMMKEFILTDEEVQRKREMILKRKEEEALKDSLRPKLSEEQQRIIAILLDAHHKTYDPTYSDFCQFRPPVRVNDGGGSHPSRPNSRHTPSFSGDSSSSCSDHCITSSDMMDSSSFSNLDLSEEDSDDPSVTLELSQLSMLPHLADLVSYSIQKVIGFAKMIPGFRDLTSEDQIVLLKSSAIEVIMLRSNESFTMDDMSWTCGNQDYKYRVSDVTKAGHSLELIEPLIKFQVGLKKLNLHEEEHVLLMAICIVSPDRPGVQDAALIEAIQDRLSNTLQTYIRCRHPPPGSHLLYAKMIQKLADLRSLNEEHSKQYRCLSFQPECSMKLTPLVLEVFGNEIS
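Compounds are added to VDR with labelled SRC2-3 coactivator peptide and held 2 h at room temperature. Inhibition of the VDR–peptide interaction is then read as a change in fluorescence polarization.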
Starred values were filed as active, the others as inactive; ? = inconclusive; & = joins results of further samples. % is scaled to controls: 0 for no effect and ±100 for the full control effect; potency is read from the fitted curve at half-maximal effect.

SMILES	VDR inh
O=S(=O)(c1ccccc1)N1N=C(c2cccs2)CC1c1ccc(F)cc1 (stereo not drawn)	-4%
O=C(NCCN1C(=O)S/C(=C/c2ccccc2)C1=O)C1CC(=O)N(Cc2ccccc2)C1 (stereo not drawn)	11%
COC(=O)Cn1c2ccccc2c2nc3ccccc3nc21	-19%
CCOC(=O)C1=C(C)N=C2SC(C)C(=O)N2C1c1cccc(F)c1 (stereo not drawn)	1%
CC(=O)N1c2ccccc2C(=O)C1N1CCN(c2cccc(C(F)(F)F)c2)CC1 (stereo not drawn)	-7%
O=C(COc1cc(O)c2c(=O)c3ccccc3oc2c1)OCc1ccccc1	1%
O=C(COc1ccccc1)Nc1cc(S(=O)(=O)N2CCOCC2)ccc1N1CCCC1	-4%
Cc1ccc(OCC(=O)N2N=C(c3ccc(Cl)cc3)CC2c2ccco2)c([N+](=O)[O-])n1 (stereo not drawn)	-17%
Nc1nc(-n2cnnc2)nn1-c1ccccc1	-1%
O=C(Nc1ccc(-c2nc3ccccc3o2)cc1)c1cccnc1	9%
O=C(CN1C(=O)NC(Cc2c[nH]c3ccccc23)C1=O)Nc1cccc(S(=O)(=O)N2CCCC2)c1 (stereo not drawn)	-3%
COc1ccc(OCc2cc(C(=O)N3CCCCCC3)no2)c(Cl)c1	4%
O=C(c1nn(Cc2ccccc2)c(=O)c2ccccc12)N1CCN(C/C=C/c2ccccc2)CC1	14%
CC(=O)c1ccc(OCc2cc(C(=O)N(C)Cc3cc(C)no3)no2)cc1	3%
COc1ccc(C2=NOC(Cn3nc(-c4ccccc4)cc3C(=O)O)C2)cc1 (stereo not drawn)	-12%
CC1(C)CC(=O)C/C(=N/Nc2nc3ccccc3s2)C1	?
COc1cccc(NC(=O)CN(C)C(=O)CCNC(=O)c2ccccc2OC)c1	0%
CC(C)CN1CC[C@@]2(CCCN(S(=O)(=O)c3ccccc3)C2)C1	-1%
COc1cc(OC)cc(C(=O)NC(C(=O)O)C23CC4CC(CC(C4)C2)C3)c1 (stereo not drawn)	4%
CCOc1ccc(NC(=O)CN(C)C(=O)C2CC(=O)N(CCc3ccccc3)C2)cc1OCC (stereo not drawn)	7%
Cc1ccc(Oc2ccc(S(=O)(=O)N3CCOCC3)cc2C(N)=O)c(-n2nc3ccccc3n2)c1	13%
COc1ccc(C2C(C(=O)c3ccco3)=C(O)C(=O)N2CC2CCCO2)c(OC)c1 (stereo not drawn)	-9%
O=C(Nc1cccc(Cl)c1)c1nc[nH]c1C(=O)NCc1ccccc1	-15%
Oc1ccc(N2CCN(C(c3ccc(Cl)cc3)c3nnnn3Cc3ccc(F)cc3)CC2)cc1 (stereo not drawn)	-10%
COc1cc(C(=O)Nc2ccc(F)cc2Cl)ccc1OCC(=O)N1CCOCC1	2%

Next part
SMILES	VDR inh
CCOC(=O)COc1ccc(S(=O)(=O)N2CCN(c3ccc(OC)cc3)CC2)cc1	?
COc1cc(C(=O)N2CCN(C)CC2)cc(OC)c1OC	-3%
CCCOc1ccc(C2C(C(=O)c3ccco3)=C(O)C(=O)N2CCCn2ccnc2)cc1 (stereo not drawn)	-9%
COC(=O)Nc1ccc(S(=O)(=O)N(C)C)cc1	12%
COCCN(C(=O)c1cc(S(=O)(=O)N2CCCCC2)ccc1Cl)c1c(N)n(CC(C)C)c(=O)[nH]c1=O	14%
COc1ccc(Cl)cc1NC(=O)CC(C)=O	7%
Cc1nn(CC(=O)c2ccc(Cl)s2)c(C)c1[N+](=O)[O-]	17%
CCOc1cccc(C(=O)Nc2cc(C)ccc2NC(=O)c2ccco2)c1	-18%
O=S(=O)(CCNCc1ccco1)NCc1ccccc1	0%
CCCCCC(=O)Nc1cc(S(=O)(=O)N2CCCCC2)ccc1N1CCOCC1	-16%
O=C(NCCNC(=O)c1ccco1)c1ccc(Cl)c(Cl)c1	0%
CCCc1ccc(-c2csc(NC(=O)C3=COCCO3)n2)cc1	0%
O=C(Nc1ccc2ccccc2c1[N+](=O)[O-])c1ccccc1	-2%
CCOC(=O)N1CCC(NC(=O)Cn2ncc3c4ccccc4n(C)c3c2=O)CC1	11%
COc1ccc(/C=N/NC(=S)NC2CCS(=O)(=O)C2)cc1OC (stereo not drawn)	-7%
CCC1CCCCN1C(=O)Cn1c(=O)oc2ccccc21 (stereo not drawn)	4%
CC(=O)Nc1ccc(Oc2ncccn2)c(Cl)c1	14%
Cc1ccc(C(=O)CN(Cc2ccccc2)C2=NCCS2)cc1	2%
Cc1cc(N/N=C/c2ccccc2Br)nc2ccccc12	-5%
COc1ccc(N2C(=O)CCC2(C#N)c2ccc(OC)cc2)cc1 (stereo not drawn)	2%
O=C(COC(=O)c1ccco1)Nc1ccc2c(c1)OCO2	5%
CC(=O)OC1COC(OC(C)=O)CO1 (stereo not drawn)	-6%
COc1ccc(C(c2nnnn2Cc2ccccc2)N2CCN(C(=O)c3ccco3)CC2)cc1 (stereo not drawn)	6%
c1ccc(OCc2nn3c(Cn4cnc5ccccc54)nnc3s2)cc1	?
CCOC(=O)C1=C(c2ccccc2)NC(=O)NC1c1ccc(O)c(OCC)c1 (stereo not drawn)	-4%

Reformatted with the structure last: part of the list above
| VDR inh | structure |
| --- | --- |
| 0% | O=S(=O)(CCNCc1ccco1)NCc1ccccc1 |
| -16% | CCCCCC(=O)Nc1cc(S(=O)(=O)N2CCCCC2)ccc1N1CCOCC1 |
| 0% | O=C(NCCNC(=O)c1ccco1)c1ccc(Cl)c(Cl)c1 |
| 0% | CCCc1ccc(-c2csc(NC(=O)C3=COCCO3)n2)cc1 |
| -2% | O=C(Nc1ccc2ccccc2c1[N+](=O)[O-])c1ccccc1 |
| 11% | CCOC(=O)N1CCC(NC(=O)Cn2ncc3c4ccccc4n(C)c3c2=O)CC1 |
| -7% | COc1ccc(/C=N/NC(=S)NC2CCS(=O)(=O)C2)cc1OC (stereo not drawn) |
| 4% | CCC1CCCCN1C(=O)Cn1c(=O)oc2ccccc21 (stereo not drawn) |
| 14% | CC(=O)Nc1ccc(Oc2ncccn2)c(Cl)c1 |
| 2% | Cc1ccc(C(=O)CN(Cc2ccccc2)C2=NCCS2)cc1 |
| -5% | Cc1cc(N/N=C/c2ccccc2Br)nc2ccccc12 |
| 2% | COc1ccc(N2C(=O)CCC2(C#N)c2ccc(OC)cc2)cc1 (stereo not drawn) |
| 5% | O=C(COC(=O)c1ccco1)Nc1ccc2c(c1)OCO2 |
| -6% | CC(=O)OC1COC(OC(C)=O)CO1 (stereo not drawn) |
| 6% | COc1ccc(C(c2nnnn2Cc2ccccc2)N2CCN(C(=O)c3ccco3)CC2)cc1 (stereo not drawn) |
| ? | c1ccc(OCc2nn3c(Cn4cnc5ccccc54)nnc3s2)cc1 |
| -4% | CCOC(=O)C1=C(c2ccccc2)NC(=O)NC1c1ccc(O)c(OCC)c1 (stereo not drawn) |

Other entries:
SMILES	VDR inh
COc1cc(/C=C(\NC(C)=O)C(=O)NC(C)(C)CC(C)(C)C)ccc1OC(C)=O	2%
O=C(CN1C(=O)NC2(CCCCC2)C1=O)N1CCN(S(=O)(=O)c2ccccc2)CC1	-16%
CN(Cc1cccc(F)c1)C(=O)CSc1nnnn1C1CC1	14%
O=C1CCCN2N=C(SCC(=O)Nc3ccc(F)cc3F)SC2=N1	-4%
Cc1cccc(NS(=O)(=O)c2nnc(NC(=O)c3cccc(C)c3)s2)c1	-9%&14%
COc1cccc(CNC(=O)c2ccc(NS(=O)(=O)c3ccc4[nH]c(=O)[nH]c4c3)cc2)c1	-3%
Cc1ccc2c(CNCc3cccc(Cl)c3)c(C(=O)O)n(Cc3ccc(F)cc3Cl)c2c1	-12%
CCC1(C)Cc2c(sc3nnn(CC(=O)Nc4ccc(C)cc4)c(=O)c23)CO1 (stereo not drawn)	17%
CCCCOc1cccc(C(=O)N(Cc2cccs2)C2CCS(=O)(=O)C2)c1 (stereo not drawn)	5%
CC1CC(C)CN(C(=O)c2cccc(S(=O)(=O)NCc3ccccc3)c2)C1 (stereo not drawn)	-9%
CCCN1C(=O)C(Cc2nc3ccccc3c(=O)n2-c2ccccc2)c2cc(C)ccc21 (stereo not drawn)	-3%&-4%
CCn1c(CNc2ccc(F)cc2)nnc1SCC(=O)OC1CCCCC1	6%
O=C(NC1CCCCC1)c1cc(C2CC2)nn1-c1ccccc1	5%
COc1ccccc1/C=N\Nc1cn[nH]c(=O)c1Cl	-9%
Cc1ccc2cn[nH]c2c1N	-8%
CCc1c(C)nc(N2CCN(Cc3ccc4c(c3)OCO4)CC2)[nH]c1=O	-16%
CCN(CC)CCN1C(=O)C(=O)/C(=C(/O)c2ccc3c(c2)CC(C)O3)C1c1ccc(OC)cc1 (stereo not drawn)	-3%
COc1cc(/C=N/Nc2nncn2N)ccc1OCc1c(C)no[n+]1[O-]	1%
COc1cc(NC(=O)c2nc(-c3ccncc3)no2)cc(OC)c1OC	8%
O=C(NCCCN1CCOCC1)c1cccc(S(=O)(=O)Nc2ccc(F)cc2)c1	4%
FC(F)(F)c1nnc2ccc(Cl)nn12	0%
CCN(CC)CCCNC1CCS(=O)(=O)C1 (stereo not drawn)	7%
Clc1ccc(OCc2nn[nH]n2)cc1	-20%
NC(=O)NOCc1ccccc1F	-7%
Cn1ncc([N+](=O)[O-])c1C(=O)n1nnc2ccccc21	-4%

(more compounds)
SMILES	VDR inh
O=C1OCC2=C1C(c1cccc(Cl)c1)CC(=O)N2c1ccc(C(F)(F)F)cc1 (stereo not drawn)	8%
C/C(=N\N=C1\NC(=O)CC(C(=O)O)S1)c1cccs1 (stereo not drawn)	-8%
Cc1ccc(-n2ncc3c(=O)n(CC(=O)N4CCN(c5ccccc5)CC4)cnc32)cc1C	-12%
C=C(C)[C@@H]1CC[C@]2(C(=O)O)CC[C@]3(C)[C@H](CCC4[C@@]5(C)CC[C@H](O)C(C)(C)[C@@H]5CC[C@]43C)[C@@H]12 (stereo partly drawn)	3%
Cc1ccc(CNC(=O)Cn2cc(C(F)(F)F)ccc2=O)cc1	10%
O=c1[nH]c(C2C3CC4CC(C3)CC2C4)nc2ccccc12 (stereo not drawn)	1%
N#C/C(=C\c1ccc(OCC(N)=O)cc1)C(=O)NC1CC1	-10%
O=C(CCN1C(=O)C2CCCCC2C1=O)Nc1cc(F)ccc1F (stereo not drawn)	-8%
CCOC(=O)Cn1c(=O)c2c(nc3n2CC(C)CN3Cc2ccccc2)n(C)c1=O (stereo not drawn)	4%
CCOc1ccc(NC(=O)CN(C)S(=O)(=O)c2ccc3c(c2)c(=O)n(C)c(=O)n3C)cc1	3%
NS(=O)(=O)c1ccc(Nc2nc(-c3ccc(O)cc3O)cs2)cc1	7%
Cc1cccc(C(=O)N2[C@@H](C(C)C)COc3cc(Br)ccc3S2(=O)=O)c1	?
O=C(CSc1nnc(CNc2ccc(F)cc2)n1Cc1ccco1)NC1CC1	-1%
O=C(NCC(=O)N1CCN(c2cccc(Cl)c2)CC1)c1ccc(Br)o1	-2%
O=C(Nc1ccc(-c2cscn2)cc1)C1CCCN(Cc2ccc(CO)o2)C1 (stereo not drawn)	-7%
CCOC(=O)c1nc(C)n(-c2cc(Cl)cc(Cl)c2)n1	-10%
O=C(Cc1ccccc1)N/N=C/c1cc(Br)cs1	-11%
CCc1c(C(=O)Nc2cc(C)ccc2OC)[nH]c(C)c1C(C)=O	11%
CCOc1ccc(N2C(=O)c3cccnc3C2Nc2ccc(F)cc2)cc1 (stereo not drawn)	-23%
COc1ccc(NC(=O)NC2CCCc3ccccc32)cc1 (stereo not drawn)	-3%
CCc1ccc(-c2nc(CS(=O)CC(=O)NCCc3ccc(Cl)cc3)c(C)o2)cc1 (stereo not drawn)	5%
COc1cc(NC(=O)c2cc3c(C)nc4ccccc4c3o2)cc(OC)c1OC	14%
O=C(NCCN1C(=O)S/C(=C\c2ccc(Cl)cc2)C1=O)C1=COCCO1	-3%
O=C(O)c1cccc(NC(=S)N/N=C/c2cccc(O)c2)c1	-1%
CCCCNC(=S)N1CCN(C)CC1	16%

The closing 2 records of the part above open the next one.
SMILES	VDR inh
O=C(O)c1cccc(NC(=S)N/N=C/c2cccc(O)c2)c1	-1%
CCCCNC(=S)N1CCN(C)CC1	16%
COc1ccc(CCC(=O)Nc2cc3c4c(c2)CCC(=O)N4CCC3)cc1	2%
CCOC(=O)CC1=C(C#N)C(c2cccnc2)C(C(=O)OCC)=C(N)O1 (stereo not drawn)	-3%
CCOC(=O)N1CCN(C(=O)Nc2ccccc2Cl)CC1	-4%
Cc1ccc(-n2c(SCC(=O)NCCN3C(=O)CSC3=O)nnc2-c2ccccc2)cc1C	-12%
NS(=O)(=O)c1ccc(CNC(=O)c2cc(=O)[nH]c3ccccc23)cc1	-7%
CCc1nnc(N/N=C/c2cc(C)c(C)cc2C)n1N	4%
COC(=O)c1ccc(CSc2nc3cc(Cl)ccc3o2)cc1	-1%
CCc1ccc(CN(C(=O)c2cc3ccccc3oc2=O)C2CCS(=O)(=O)C2)cc1 (stereo not drawn)	6%&6%
Cc1ccc(/C=C/C(=O)N2CCC(Cc3ccccc3)CC2)cc1	1%
COc1ccc(C(=O)NC(=S)NNC(=O)c2cccnc2)cc1	0%
Cc1cc(C)c(C(=O)NC2CCCc3c2cnn3-c2cccc(C)c2C)o1 (stereo not drawn)	6%
COCCNC(=O)c1ccc2c(c1)N(Cc1cccc(Cl)c1)C(=O)c1ccccc1S2(=O)=O	5%
O=C(O)c1ccccc1C(=O)Nc1cccc([N+](=O)[O-])c1	1%
CCCNC(=O)N1CCC(C(=O)c2cccc(F)c2)CC1	-4%
Cc1cc(N2CCN(c3cccc(C)c3C)CC2)nc(-c2ccccc2)n1	18%
O=C(N/N=C/c1ccc(Cl)cc1Cl)c1ccc(-n2cnnn2)cc1	1%

Source: PubChem

Not all compounds are listed, so the mix of outcomes need not match the whole.
